GALR2 agonist: activates the human galanin receptor 2; O43603; GALR2-expressing cells, agonist activation read-out; activation, %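 (tested at 5 µM)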; 140,000 tested, 0.48% active;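 active = above mean plus 3 SD of all compounds, about 5% in these data, not always enough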;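 also: 0% = vehicle buffer wells and 100% = reference agonist at full effect; tested in CHO reporter cells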
Target sequence (O43603 whole entry, looked up): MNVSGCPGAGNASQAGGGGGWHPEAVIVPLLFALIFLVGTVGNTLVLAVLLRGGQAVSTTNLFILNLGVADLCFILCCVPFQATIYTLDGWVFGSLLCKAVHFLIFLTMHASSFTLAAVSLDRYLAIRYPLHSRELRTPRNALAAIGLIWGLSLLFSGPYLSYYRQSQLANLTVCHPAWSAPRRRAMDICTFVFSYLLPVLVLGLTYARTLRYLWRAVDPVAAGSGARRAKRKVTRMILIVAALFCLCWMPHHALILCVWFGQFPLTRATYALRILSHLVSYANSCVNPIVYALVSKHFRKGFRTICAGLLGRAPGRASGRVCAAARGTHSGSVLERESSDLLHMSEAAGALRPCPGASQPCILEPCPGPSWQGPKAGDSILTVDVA
INS promoter inh: TRM-6 insulin promoter activity inhibition | TRM-6 cells (human fetal islet line), insulin promoter-eGFP reporter, imaging; reporter expression induced with tamoxifen | inhibition, % at 2 µM | 130,000 tested, 0.9% active | AID 1273;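 active = inhibition above the mean plus 3 SD, with well images judged a real hit on visual review, cut at about 60% in these data, passing the limit was not always enough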
RGS16-Gao HTS: modulates binding between human RGS16 and Galphao; O15492+P09471; bead-based flow cytometry RGS16-Galphao binding, fluorescence; actives lie on both sides; 220,000 tested, 0.38% active; binding response (% of control), % at 10 µM;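 active = below 25% or above 175%, edge rows of some plates excepted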;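 also: Galphao activated by GDP with aluminum fluoride before binding; 100% = wells without compound and 0% = beads without RGS; some results beyond the cut were filed as inactive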
Target sequence (O15492 whole entry, looked up): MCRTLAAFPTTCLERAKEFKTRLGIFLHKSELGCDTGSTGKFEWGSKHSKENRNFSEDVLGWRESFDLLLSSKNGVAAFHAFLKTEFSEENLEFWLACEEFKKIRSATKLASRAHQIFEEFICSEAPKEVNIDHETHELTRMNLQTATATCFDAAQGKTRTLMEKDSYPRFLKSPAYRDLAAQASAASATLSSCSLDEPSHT
Target sequence (P09471 whole entry, looked up): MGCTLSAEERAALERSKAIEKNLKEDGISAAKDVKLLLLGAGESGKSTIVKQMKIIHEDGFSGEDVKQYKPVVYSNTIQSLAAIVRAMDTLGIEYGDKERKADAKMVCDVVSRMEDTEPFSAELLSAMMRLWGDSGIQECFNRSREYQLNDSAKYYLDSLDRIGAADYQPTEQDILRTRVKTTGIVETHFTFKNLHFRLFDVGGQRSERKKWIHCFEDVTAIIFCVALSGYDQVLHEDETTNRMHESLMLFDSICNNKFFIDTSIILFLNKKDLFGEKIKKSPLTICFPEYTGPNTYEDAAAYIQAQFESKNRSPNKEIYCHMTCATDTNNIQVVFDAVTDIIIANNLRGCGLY
HSV augment: HSV replication enhancement; maximum fold increase; HSV replication augmentation in cells, fold increase; AID 1956; 220,000 tested, 0.005% active;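 active = peak rise of 1.5-fold or more in the series; tested in PC3 cells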;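 also: first round at 10 µM; read as green reporter fluorescence; hits show the peak of a series up to 25 µM; 1 = signal of infected wells without compound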
PKD1 inh: PKD1 (human) kinase inhibition | Q15139 | PKD1 kinase fluorescence polarization assay | inhibition, %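 (about 10 µM by stock and volumes)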 | 200,000 tested, 0.056% active;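 active = inhibition of 50% or more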;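 also: controls were vehicle for no effect and a reference inhibitor for full effect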
INS promoter inh cell count: recorded beside INS promoter inh, whose call it bears; normalized cell count, %; measured here: cell count, toxicity; reference of the scale not given here;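 cells exposed to compound for 48 h; stained nuclei by imaging scaled within each plate; lower means fewer cells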
HSV augment primary fold: second read-out of HSV augment, no call of its own (marks repeat the call); fold increase; compound at 10 µM; measured here: primary screen fold increase 10 uM; tested in PC3 cells;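 GFP signal in the first replicate; 1 = infected wells without compound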
The depositor's hits bear a star.

Screening O=C(CCNc1n[nH]c(=O)[nH]c1=O)N1CCOCC1 returned GALR2 agonist -2.4, RGS16-Gao HTS 103.0, HSV augment inactive, PKD1 inh -9.2 and HSV augment primary fold 1.09.
For COCCN1C(=O)c2cc(C(=O)Nc3ccc(C)c(F)c3)ccc2C1Nc1ccc(C)c(F)c1 (configuration not stated) the results were GALR2 agonist -0.3, INS promoter inh -15.0, RGS16-Gao HTS 69.4, HSV augment inactive, PKD1 inh -0.5, INS promoter inh cell count 62.9 and HSV augment primary fold 0.95.
CCCCC(=O)Nc1nc(C)c(C(C)=O)s1 was read as GALR2 agonist -3.2, RGS16-Gao HTS 102.4, HSV augment inactive, PKD1 inh -8.9 and HSV augment primary fold 0.96.
`CCCn1c(CNS(=O)(=O)c2ccc(C)cc2)nc2ccccc21` gave GALR2 agonist -1.3, RGS16-Gao HTS 94.8, HSV augment inactive, PKD1 inh 7.0 and HSV augment primary fold 0.92.
Screening CCc1ccc(N2C(=O)CC(N(CC3CCCO3)C(=O)/C=C/C(=O)O)C2=O)cc1 (configuration not stated) returned GALR2 agonist 0.4, INS promoter inh -57.1, RGS16-Gao HTS 100.5, HSV augment inactive, PKD1 inh 7.1, INS promoter inh cell count 120.2 and HSV augment primary fold 0.92.
For Cc1cc(NC(=O)Cn2ccsc2=N)c([N+](=O)[O-])cc1C the results were INS promoter inh -66.7, RGS16-Gao HTS 114.7, HSV augment inactive, PKD1 inh -8.4, INS promoter inh cell count 162.3 and HSV augment primary fold 0.81.
CC(C)N(C(=O)COC(=O)[C@@H]1CC(O)CN1S(=O)(=O)c1ccccc1[N+](=O)[O-])C(C)C (some centres not stated) was read as GALR2 agonist -0.6, INS promoter inh -41.7, RGS16-Gao HTS 52.2, HSV augment inactive, PKD1 inh -5.8, INS promoter inh cell count 62.4 and HSV augment primary fold 0.98.
COc1ccc(NC(=S)N(CCc2c(C)[nH]c3ccccc23)Cc2ccco2)cc1 was read as GALR2 agonist -1.0, INS promoter inh 28.6, PKD1 inh 9.8 and INS promoter inh cell count 129.2.
CCOC(=O)CNC(=O)C1COc2ccccc2O1 (configuration not stated) was read as RGS16-Gao HTS 94.0, HSV augment inactive and HSV augment primary fold 1.02.
Screening O=C(OCC(=O)c1cccs1)c1ccc([N+](=O)[O-])o1 returned INS promoter inh -5.9, RGS16-Gao HTS 97.4, HSV augment inactive, PKD1 inh 4.6, INS promoter inh cell count 118.7 and HSV augment primary fold 1.22.
Screening O=C(C(Cc1ccccc1)n1cccc1)N1CCCCCC1 (configuration not stated) returned GALR2 agonist -1.4, RGS16-Gao HTS 88.2, HSV augment inactive, PKD1 inh 2.9 and HSV augment primary fold 1.13.
Cc1cc(Cl)n2c(nc3ccccc32)c1C#N was read as INS promoter inh -166.7, RGS16-Gao HTS 101.6, HSV augment inactive, PKD1 inh -1.4, INS promoter inh cell count 18.4 and HSV augment primary fold 1.11.
`COc1cc(C(=O)NNC(=O)c2ccc(NC(=O)C(C)(C)C)cc2)cc(OC)c1OC` gave INS promoter inh 58.3, RGS16-Gao HTS 101.1, HSV augment inactive, PKD1 inh -2.8, INS promoter inh cell count 113.1 and HSV augment primary fold 0.83.
COc1ccc(-c2cc(C(=O)OCC(=O)Nc3ccc4c(c3)OCO4)c3ccccc3n2)cc1 was read as GALR2 agonist -0.1, RGS16-Gao HTS 97.4, HSV augment inactive, PKD1 inh -0.1 and HSV augment primary fold 0.94.
CCc1ccccc1OCC(=O)OCC(=O)c1c(N)n(C)c(=O)n(C)c1=O was read as INS promoter inh -21.4, RGS16-Gao HTS 103.1, HSV augment inactive, PKD1 inh -2.4, INS promoter inh cell count 107.1 and HSV augment primary fold 0.96.
`COc1ccnc(Oc2ccccc2)c1C#N` gave GALR2 agonist -1.4, INS promoter inh -23.5, RGS16-Gao HTS 105.4, HSV augment inactive, PKD1 inh -6.7, INS promoter inh cell count 109.2 and HSV augment primary fold 0.87.
Screening CCCCc1nc(SCCN2CCOCC2)c2c(=O)n(C)c(=O)n(C)c2n1 returned RGS16-Gao HTS 97.7, HSV augment inactive, PKD1 inh -8.5 and HSV augment primary fold 0.86.
For O=C(Nc1c(Cl)ccc2nsnc12)c1cccnc1 the results were GALR2 agonist -0.8, INS promoter inh 4.6, RGS16-Gao HTS 138.5, HSV augment inactive, PKD1 inh -8.0, INS promoter inh cell count 57.9 and HSV augment primary fold 1.
For O=C(COC(=O)Cc1c(Cl)cccc1Cl)NCCC1=CCCCC1 the results were GALR2 agonist 0.0, RGS16-Gao HTS 96.3, HSV augment inactive, PKD1 inh 1.4 and HSV augment primary fold 1.05.
For Nc1ccc(-c2sc(N)nc2-c2ccccc2)cc1 the results were GALR2 agonist -1.7, INS promoter inh 22.0, RGS16-Gao HTS 103.8, PKD1 inh -5.4 and INS promoter inh cell count 111.9.

The closing 4 compounds of the part above open the next one.
Screening CCCCc1nc(SCCN2CCOCC2)c2c(=O)n(C)c(=O)n(C)c2n1 returned RGS16-Gao HTS 97.7, HSV augment inactive, PKD1 inh -8.5 and HSV augment primary fold 0.86.
For O=C(Nc1c(Cl)ccc2nsnc12)c1cccnc1 the results were GALR2 agonist -0.8, INS promoter inh 4.6, RGS16-Gao HTS 138.5, HSV augment inactive, PKD1 inh -8.0, INS promoter inh cell count 57.9 and HSV augment primary fold 1.
For O=C(COC(=O)Cc1c(Cl)cccc1Cl)NCCC1=CCCCC1 the results were GALR2 agonist 0.0, RGS16-Gao HTS 96.3, HSV augment inactive, PKD1 inh 1.4 and HSV augment primary fold 1.05.
For Nc1ccc(-c2sc(N)nc2-c2ccccc2)cc1 the results were GALR2 agonist -1.7, INS promoter inh 22.0, RGS16-Gao HTS 103.8, PKD1 inh -5.4 and INS promoter inh cell count 111.9.
Screening Cc1ccc(CN2CCN(Cc3cnc(C)[nH]3)CC2CCO)cc1 (configuration not stated) returned INS promoter inh 38.9, RGS16-Gao HTS 98.8, HSV augment inactive, PKD1 inh 5.9, INS promoter inh cell count 213.5 and HSV augment primary fold 0.95.
Screening Cc1ccc(N(Cc2ccc(C(=O)Nc3c(C)n(C)n(-c4ccccc4)c3=O)cc2)S(C)(=O)=O)cc1C returned INS promoter inh 35.3, RGS16-Gao HTS 104.0, HSV augment inactive, PKD1 inh 2.9, INS promoter inh cell count 101.7 and HSV augment primary fold 0.88.
O=C(CC1NCCNC1=O)Nc1ccccc1 (configuration not stated) was read as RGS16-Gao HTS 99.5, HSV augment inactive, PKD1 inh -3.7 and HSV augment primary fold 0.95.
`COc1cc(OC)cc(C2=NC3(CCC(C)CC3)NC2=S)c1` (configuration not stated) gave INS promoter inh -66.7, RGS16-Gao HTS 101.0, HSV augment inactive, PKD1 inh -0.4, INS promoter inh cell count 117.0 and HSV augment primary fold 0.99.
O=C(NCC1CCCO1)c1ccc(NS(=O)(=O)c2ccccc2)cc1 (configuration not stated) was read as RGS16-Gao HTS 104.6, HSV augment inactive, PKD1 inh 4.3 and HSV augment primary fold 1.03.
For CC(NC(=O)COC(=O)[C@@H]1CCCN1S(=O)(=O)c1ccccc1F)C12CC3CC(CC(C3)C1)C2 (some centres not stated) the results were GALR2 agonist -0.1, INS promoter inh -3.7, RGS16-Gao HTS 101.9, HSV augment inactive, PKD1 inh 3.3, INS promoter inh cell count 82.5 and HSV augment primary fold 0.97.
`Cc1ccc(-n2cnc(=O)c3cccnc32)cc1` gave GALR2 agonist -1.3, RGS16-Gao HTS 99.2, HSV augment inactive, PKD1 inh -8.9 and HSV augment primary fold 0.93.
For N#Cc1cccc(NC(=O)CSc2ccc3c4c(cccc24)C(=O)c2ccccc2-3)c1 the results were GALR2 agonist 2.8, INS promoter inh -233.3, RGS16-Gao HTS 105.2, PKD1 inh 2.3 and INS promoter inh cell count 145.8.
`CCN(CC)c1nc2cc(OC)ccc2cc1C#N` gave GALR2 agonist 1.8, INS promoter inh 1.3, RGS16-Gao HTS 99.2, PKD1 inh -1.8 and INS promoter inh cell count 128.6.
For Cc1cccc(C)c1NC(=O)C1(NC(=O)C2CCC(=O)N2)CCCCC1 (configuration not stated) the results were GALR2 agonist 0.3, INS promoter inh 23.3, RGS16-Gao HTS 96.6, HSV augment inactive, PKD1 inh -1.1, INS promoter inh cell count 70.3 and HSV augment primary fold 1.05.
`CCOC(=O)c1c(NC(=S)Nc2ccccc2C)sc2c1CCC2` gave GALR2 agonist 0.3, INS promoter inh 12.9, RGS16-Gao HTS 177.9, HSV augment inactive, PKD1 inh 8.1, INS promoter inh cell count 104.8 and HSV augment primary fold 1.16.
Screening CN(c1ccccc1)S(=O)(=O)c1cccc(NC(=O)CSc2nncn2C)c1 returned GALR2 agonist -1.0, INS promoter inh 28.6, RGS16-Gao HTS 107.3, HSV augment inactive, PKD1 inh -8.4, INS promoter inh cell count 86.0 and HSV augment primary fold 1.04.
Cc1ccc(S(=O)(=O)NCC(=O)OCc2ccccc2Br)cc1 was read as RGS16-Gao HTS 110.3, HSV augment inactive, PKD1 inh 9.0 and HSV augment primary fold 0.86.
Screening Cc1ccc(CCNC(=O)c2ccc(CS(=O)(=O)Cc3ccccc3F)o2)cc1 returned GALR2 agonist 0.3, INS promoter inh -54.8, RGS16-Gao HTS 509.1, HSV augment inactive, PKD1 inh -1.6, INS promoter inh cell count 93.9 and HSV augment primary fold 1.09.
`Cc1ccccc1NC(=O)CS(=O)(=O)c1cn(CC(=O)N2CCOCC2)c2ccccc12` gave RGS16-Gao HTS 99.0, HSV augment inactive, PKD1 inh 6.1 and HSV augment primary fold 0.98.
For COc1ccccc1NS(=O)(=O)c1cc(NC(=O)c2ccc(Cl)nc2)ccc1Cl the results were GALR2 agonist -0.5, INS promoter inh -28.6, RGS16-Gao HTS 103.4, HSV augment inactive, PKD1 inh 0.2, INS promoter inh cell count 150.1 and HSV augment primary fold 0.71.
For COc1ccc(CCNC(=O)CN2CCN(Cc3ccc(F)cc3)C2=O)cc1OC the results were GALR2 agonist -2.1, RGS16-Gao HTS 98.3, HSV augment inactive, PKD1 inh 5.1 and HSV augment primary fold 1.07.
CCn1c(=O)c2c3c(sc2n2cnnc12)CCC3 was read as GALR2 agonist -1.9, INS promoter inh 2.9, RGS16-Gao HTS 93.9, HSV augment inactive, PKD1 inh -4.0, INS promoter inh cell count 130.2 and HSV augment primary fold 0.99.
`O=C(Nc1ccc(S(=O)(=O)N2CCCC2)cc1)c1ccc(CN2CCc3ccccc3C2)cc1` gave GALR2 agonist -1.1, RGS16-Gao HTS 135.5, HSV augment inactive, PKD1 inh -0.8 and HSV augment primary fold 1.04.
Screening COc1cc(OC)cc(C(=O)Oc2c(CN3CCOCC3)cc(Cl)c3cccnc23)c1 returned RGS16-Gao HTS 98.3, HSV augment inactive and HSV augment primary fold 0.77.
COc1ccc(-c2nc3ncccn3c2Nc2ccccc2)cc1 was read as INS promoter inh -23.1, RGS16-Gao HTS 108.0, PKD1 inh -6.2 and INS promoter inh cell count 123.8.
Cc1cccc(CN2CCN(C(=O)CCc3nnc(C4CCCCC4)o3)CC2)c1 was read as INS promoter inh -10.0, RGS16-Gao HTS 109.7, HSV augment inactive, PKD1 inh -3.9, INS promoter inh cell count 41.3 and HSV augment primary fold 0.89.
Cc1nn(CCCC(=O)NCCc2ccccc2)c(C)c1[N+](=O)[O-] was read as INS promoter inh -36.4, RGS16-Gao HTS 88.5, HSV augment inactive, PKD1 inh -3.7, INS promoter inh cell count 66.7 and HSV augment primary fold 1.01.
For Cc1ccc(NC(=O)NNC(=O)C2CCN(Cc3ccc(F)cc3Cl)CC2)cc1 the results were INS promoter inh 13.3, RGS16-Gao HTS 110.7, HSV augment inactive, PKD1 inh 5.5, INS promoter inh cell count 134.4 and HSV augment primary fold 0.98.
Oc1c(-c2cc(-c3ccco3)[nH]n2)ccc2ccccc12 was read as GALR2 agonist -1.8, INS promoter inh -6.9, RGS16-Gao HTS 106.2, HSV augment inactive, PKD1 inh 7.6, INS promoter inh cell count 125.0 and HSV augment primary fold 0.92.
CCCN(Cc1cc2cc(C)ccc2[nH]c1=O)S(C)(=O)=O was read as GALR2 agonist -1.7, RGS16-Gao HTS 113.9, HSV augment inactive, PKD1 inh -4.7 and HSV augment primary fold 0.95.
`O=C(Cn1cnc2ccccc21)N1CCN(S(=O)(=O)c2ccccc2)CC1` gave RGS16-Gao HTS 102.0, HSV augment inactive, PKD1 inh -0.6 and HSV augment primary fold 0.95.
For CCOc1ccc(C(=O)N(CN2CCCC2=O)c2ccccc2)cc1 the results were GALR2 agonist -3.0, RGS16-Gao HTS 102.1, HSV augment inactive, PKD1 inh 5.4 and HSV augment primary fold 0.83.
For Clc1ccccc1OCc1nnc(-c2ccccc2Br)o1 the results were GALR2 agonist -2.8, INS promoter inh -35.7, RGS16-Gao HTS 80.8, HSV augment inactive, PKD1 inh -7.7, INS promoter inh cell count 39.0 and HSV augment primary fold 0.76.

Assay outcomes from PubChem.
